# KSHV LANA nucl: LANA-nucleosome interaction inhibition; FITC-LANA1-23 / chicken nucleosome fluorescence polarization; active compounds read low; z-score (no concentration beside the values); AID 720717; actives 0.3% (n = 51,000);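 active = both repeat wells score below -2 in polarization z-score versus plate sample wells, excluding overly bright wells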;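 note: 100 nL library stock added to about 30 µL; numbers are from one replicate; some results filed as inactive read as strong as hits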
#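 test system = FITC-LANA peptide and chicken nucleosomes | amount = 240 nM purified chicken nucleosomes (480 nM peptide binding sites), final | reagent = 50 nM FITC-LANA1-23 probe | medium = TEN-BT buffer, pH 7.5 | doses = single compound addition by pin transfer, 100 nL per well | timing = 10–45 min, room temperature | detection = fluorescence polarization | repeats = duplicate plates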
# Ab BasE inh: BasE siderophore biosynthesis inhibition | purified BasE, fluorescence polarization binding displacement | inhibition, % (no concentration beside the values) | actives 0.1% (n = 84,000);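 active = both replicates above 25% with normal brightness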;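 note: 0% = negative plate control signal and 100% = positive plate control signal; stock transfer was 100 nL into about 30 µL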
# Active calls of the source: *; x = no result given; & = joins results of further samples.
SMILES,KSHV LANA nucl,Ab BasE inh
Clc1nc(Cl)nc(NNc2nc(Cl)nc(Cl)n2)n1,0.31,3.9
O=C(Nc1ccc2c(c1)OCCO2)c1ccccc1F,x,1.7
CCC(=O)n1ccc(C(=O)N2CCOCC2)n1,x,0.7
CCOC(=O)c1c(C)nn(-c2ncc(C(F)(F)F)cc2Cl)c1C,-0.061,x
O=C(Nc1cccc(Cl)c1)c1cc(-c2ccccc2)on1,2.2,-5.1
N#CCC(=O)N/N=C/c1c(-c2ccccc2)n(-c2ccccc2)c2ccccc12,x,-0.3
CCc1nn(CC(=O)N(CC)Cc2ccccc2)c(=O)c2cc3sccc3n12,-0.69,-0.8
CC(C)(C)n1nnnc1C(c1cc2cc3c(cc2[nH]c1=O)OCO3)N(Cc1ccccc1)Cc1cccnc1 (configuration not stated),0.11,2.2
O=C(COC(=O)C1CCC(N2C(=O)C3C4C=CC(C4)C3C2=O)CC1)c1ccc(F)cc1 (configuration not stated),-0.36,0.6
CCC(CC)C(=O)c1c[nH]c(C(=O)NCc2cccs2)c1,1.1,x
CC(=O)Nc1cccc(C(=O)N/N=C/c2ccc(C)o2)c1,-0.2,-0.4
Cc1ccc(OCC(=O)NCC(=O)n2nc(C)cc2C)cc1,x,2.9
Cc1nc(C(=O)/C=C/N(C)C)cs1,x,2.2
Clc1ccc(CNCc2cccnc2)cc1,0.76,x
O=C(CSC1CCCC1)NCc1ccc2c(c1)OCO2,x,1.8
CSc1ccc(Cl)c(C(=O)N2CCN(CC(=O)N3CCCC3)CC2)c1,x,4.9
CCCCCC(C)n1[nH]c(=O)c2c(C)cc(=O)[nH]c21 (configuration not stated),-0.089,2.0
COC(=O)[C@H]1[C@H]2C[C@H]3c4[nH]c5ccccc5c4CCN3C[C@H]2CC[C@@H]1O,-0.23,1.9
CCN(CC)C(=O)C12CC3CC(CC(C3)C1)C2,0.68,0.4
O=C1c2ccccc2C(=O)C1c1ccc(Br)cc1,-0.21,x
O=C(Oc1ccc2c(c1)OCO2)c1ccc(S(=O)(=O)C(F)F)cc1,x,-4.6
O=C(CSc1ccccc1)Nc1ccccc1F,-2,1.1
CC(C#N)(Nc1ccccc1)c1ccc(F)cc1 (configuration not stated),x,4.0
CCCN1C(=O)/C(=N\OCC(=O)c2cc(C)n(Cc3cccs3)c2C)c2ccccc21,x,-0.9
COC(=O)c1ccc2c(c1)NC(=O)C(N(CC(C)C)CC(C)C)S2 (configuration not stated),2.4,-7.2
COc1ccc(CCN=Cc2ccc3c(c2)OCO3)cc1OC,x,-0.3
CC(C)N(Cc1ccccc1)C(=O)CSc1nnc(-c2ccccc2Br)o1,x,1.2
CCOC(=O)c1cccc(NC(=O)Cn2nnc(-c3ccc(C)cc3)n2)c1,-0.72,1.7
COC(=O)c1sccc1N(S(=O)(=O)c1ccccc1)S(=O)(=O)c1ccccc1,x,2.1
Cn1c(-c2cccnc2)nc2c1c(=O)[nH]c(=O)n2Cc1ccccc1,x,2.5
Cc1[nH]c(=O)[nH]c(=O)c1S(=O)(=O)N(CC(C)C)CC(C)C,-0.14,-0.5
CSc1ccc2c(c1)N(CCC1CCCCN1C)c1ccccc1S2 (configuration not stated),-0.12&0.44&-0.7&0.5,-0.2&1.2
CCCCS(=O)(=O)NN1C(=O)NC(C)(c2ccccc2)C1=O (configuration not stated),x,-1.3
COC(=O)C1CCN(S(=O)(=O)c2c(C)c(C)cc(C)c2C)CC1,1.9,-0.3
COc1ccccc1Oc1cc(C)nc2ncnn12,x,-0.1
CC(NC(=O)CSc1cccc[n+]1[O-])C1CC2CCC1C2 (configuration not stated),x,-4.0
CC1CN(C(=O)CNC(=O)COc2ccccc2)CC(C)O1 (configuration not stated),x,2.2
Cn1c(SCc2cnc(-c3ccccc3)s2)nnc1C1COc2ccccc2O1 (configuration not stated),x,0.3
Cc1nc2ccc(S(=O)(=O)NC(CC(C)C)C(=O)N3CCN(c4ccccc4)CC3)cc2s1 (configuration not stated),-1.6,0.1
O=C1c2ccccc2S(=O)(=O)N1Cc1ccc2nonc2c1,x,0.3
C/C(=N/NC(=O)Cc1cc(=O)[nH][nH]1)c1ccc(Cl)cc1,-0.56,9.3
CCOC(=O)C1=C(C)NC(=O)NC1c1ccccc1 (configuration not stated),-0.45,2.3
O=C(CSc1nnc(-c2ccc3c(c2)OCO3)o1)NC(=O)NC1CCS(=O)(=O)C1 (configuration not stated),x,4.0
CCC(=O)Nc1sc2c(c1C(=O)NC)CCC2,-0.65,-0.4
N#Cc1cc(Br)ccc1N=C1CCCN1c1cccc(Cl)c1,x,2.0
O=C(Nc1ccccc1)Nc1csc2ccccc12,x,-1.7
CC(C)C(C)(C#N)NC(=O)CN1CCN(c2cccc(Cl)c2)CC1 (configuration not stated),x,-1.0
Cc1ccc(-n2nc(C)c3c(C(F)(F)F)cc(-c4ccco4)nc32)cc1,0.27,0.2
CC(C)NC(=O)/C=C/c1cn(-c2ccccc2)nc1-c1cccs1,x,2.3
CCCN(CCC)C(=O)c1c(NC(=O)c2cccs2)sc2c1CCC(C)C2 (configuration not stated),-0.23,0.0
O=C(CC(NCCN1CCOCC1)C(=O)O)Nc1ccc2ccccc2c1 (configuration not stated),-0.21,4.0
O=C(COc1cccc(-n2cnnn2)c1)NCC1CCCCC1,x,0.9
COc1ccc(Br)c(-c2nc(N)nc(NC3CC3)n2)c1,x,2.9
Cc1ccc(C(=O)N/C(=C/c2ccc3c(c2)OCO3)C(=O)O)cc1,-0.91,-0.1
CCOC(=O)CCSc1nc(C)c2ccccc2n1,x,3.0
O=C(CO/N=C/c1ccco1)N1N=C2/C(=C/c3cccs3)CCCC2C1c1cccs1 (configuration not stated),x,2.5
CCOC(=O)Cn1cnc2sc(C(=O)OCC)c(C)c2c1=O,0.2,1.0
CCOC(=O)/C(C#N)=C1/CCCN1,x,-1.3
COc1cc(C(=O)NN)ccc1OC(C)C,x,-0.6
CCn1c(=O)c2cc(S(=O)(=O)NC3CCCCC3)ccc2n(CC)c1=O,2.1,-3.4

# The listing continues.
SMILES,KSHV LANA nucl,Ab BasE inh
CCC(C)c1ccc(NC(=O)C2CCCN(c3ncccn3)C2)cc1 (configuration not stated),-0.93,1.9
O=C(c1ccccn1)c1conc1-c1c(Cl)cccc1Cl,0.25,x
CCN(C#N)c1nc(N(C)C)nc(N2CCOCC2)n1,2.1,-3.5
O=CNC1CCCc2c1[nH]c1ccccc21 (configuration not stated),-0.49,3.5
O=CN1CCN(Cc2cccc(Cl)c2)CC1,0.23,2.2
CCOC(=O)c1c(C)oc(-c2ccccc2)c1S(=O)(=O)N1CCN(c2ncc(C(F)(F)F)cc2Cl)CC1,0.59,-2.4
CCOC(=O)c1c(C)[nH]c(C(=O)OCc2nc(N)nc(Nc3ccccc3C)n2)c1C,x,-0.4
COc1ccc(C2=NN(CCC(=O)NCc3ccccc3)C(=O)CC2)cc1,-0.17,-1.7
Cc1ccc(-n2nc(C)c(C(=O)O)n2)cc1,-0.79,x
CC(=O)NC(=S)Nc1ccccc1N1CCN(C(=O)c2ccccc2)CC1,0.33,1.4
CCOC(=O)c1cc(-c2ccc(Cl)s2)nn1C(C)=O,x,0.4
Cc1ccc(O)c(NC(=O)c2ccc(Br)o2)c1,-1,-1.2
CCOc1ccc2[nH]c(=O)c(CN(C(C)=O)C3CCCC3)cc2c1,-0.24,-0.2
O=C(Cc1n[nH]c(=O)c2ccccc12)NCc1ccccc1,-0.058,0.8
O=C(NCc1ccco1)c1nc2c(nnn2Cc2cccc(Cl)c2)c(=O)[nH]1,-0.56,1.3
CSc1nnc2c(n1)OC(C(=O)c1ccccc1)Nc1ccccc1-2 (configuration not stated),0.38,-0.9
CCCc1cc(N2CCN(C(=O)c3ccco3)CC2)n2c(nc3ccccc32)c1C#N,1.5,-1.2
CCN(CC)C(=O)CN(C)c1nc(-c2ccccc2)nc2ccccc12,x,-9.8
CN1CCN(CCCNc2c(N)c(=O)oc3ccccc23)CC1,0.44,1.4
CCN1CCN(CC(=O)Nc2sc3c(c2C(=O)OC)CCC(C)C3)CC1 (configuration not stated),-1.5,2.2
Cc1noc(C(F)(F)F)c1-c1nc(-c2ccccc2)no1,-0.061,1.1
O=C(Nc1cccnc1)Nc1cccc(C(F)(F)F)c1,x,3.2
O=S(=O)(Cc1ccccc1)c1ccc(Cl)c(Cl)c1,x,3.2
O/N=C/c1ccc(Cl)cc1,x,0.9
Cc1ccc(Nc2nc3ccccc3n3c(N)nnc23)cc1C,-0.55,2.7
C=CCn1c(-c2ccc(OC)cc2)nc2ccccc21,-1.2,-4.5
O=C1c2ccccc2C(=O)N1O,-0.76,3.1
COc1ccc(CCNC(=O)c2cc(C)on2)cc1OC,-1.2,0.5
COC(=O)CSC1=C(C#N)C(c2ccc3c(c2)OCO3)C2=C(CCCC2=O)N1 (configuration not stated),-0.18,1.6
CCS(=O)(=O)c1ccc(OC)c(N=NC2=C(O)CC(C)(C)CC2=O)c1,0.44,1.0
c1ccc(COc2cccc(CNn3cnnc3)c2)cc1,x,0.1
CN/C=C/C(=O)C(F)(F)F,x,-0.2
O=c1[nH]c(CN2CCN(Cc3ccccc3)CC2)nc2ccccc12,0.42,0.9
CC1=C(COc2c3occc3cc3ccc(=O)oc23)CC(C)(C)CC1,0.14,-0.3
Cc1ccc(N2C(=O)CC(C(=O)Nc3cccc(-n4cnnn4)c3)C2c2cccs2)cc1 (configuration not stated),x,-2.6
COCCn1c(Cc2ccccc2)nnc1SCc1nnc(-c2ccccc2)o1,x,0.7
O=C(O)/C=C/c1ccc(OC(F)(F)F)cc1,x,-2.6
Cc1c(Cl)cccc1-n1ncc(C(=O)O)c1C1CCN(C(=O)OC(C)(C)C)CC1,1.8,-1.2
N=C(N=C(N)N)N1CCc2ccccc21,0.81,-1.7
O=S(=O)(c1ccc2oc3ccc(S(=O)(=O)N4CCCC4)cc3c2c1)N1CCCC1,-0.063,2.1

# 15 successive records already listed:
SMILES,KSHV LANA nucl,Ab BasE inh
Cc1noc(C(F)(F)F)c1-c1nc(-c2ccccc2)no1,-0.061,1.1
O=C(Nc1cccnc1)Nc1cccc(C(F)(F)F)c1,x,3.2
O=S(=O)(Cc1ccccc1)c1ccc(Cl)c(Cl)c1,x,3.2
O/N=C/c1ccc(Cl)cc1,x,0.9
Cc1ccc(Nc2nc3ccccc3n3c(N)nnc23)cc1C,-0.55,2.7
C=CCn1c(-c2ccc(OC)cc2)nc2ccccc21,-1.2,-4.5
O=C1c2ccccc2C(=O)N1O,-0.76,3.1
COc1ccc(CCNC(=O)c2cc(C)on2)cc1OC,-1.2,0.5
COC(=O)CSC1=C(C#N)C(c2ccc3c(c2)OCO3)C2=C(CCCC2=O)N1 (configuration not stated),-0.18,1.6
CCS(=O)(=O)c1ccc(OC)c(N=NC2=C(O)CC(C)(C)CC2=O)c1,0.44,1.0
c1ccc(COc2cccc(CNn3cnnc3)c2)cc1,x,0.1
CN/C=C/C(=O)C(F)(F)F,x,-0.2
O=c1[nH]c(CN2CCN(Cc3ccccc3)CC2)nc2ccccc12,0.42,0.9
CC1=C(COc2c3occc3cc3ccc(=O)oc23)CC(C)(C)CC1,0.14,-0.3
Cc1ccc(N2C(=O)CC(C(=O)Nc3cccc(-n4cnnn4)c3)C2c2cccs2)cc1 (configuration not stated),x,-2.6

# (cont.)
SMILES,KSHV LANA nucl,Ab BasE inh
CCN(CC(=O)Nc1cc(Cl)ccc1C)CC(=O)NC1CC1,x,1.7
NCCCOCc1ccccc1,x,1.1
CCNC(=S)N/N=C/c1cc(OC)c(OC)c(OC)c1,-0.62,3.0
CC(=O)Nc1ccc2c(COC(=O)C3CC3C)cc(=O)oc2c1 (configuration not stated),x,0.5
Cc1ccccc1-c1noc(-c2cc3cc(C(C)(C)C)cc(O)c3oc2=O)n1,0.24,-0.4
Cc1ccc(S(=O)(=O)N2CCC(C(=O)O)CC2)c(C)c1,x,0.9
O=C(CSc1ccc(-c2ccccc2)nn1)N1CCCC1,-0.016,-2.1
CC(C)(C)C1CCc2sc(-c3nnc(CN4CCN(C(=O)c5cccs5)CC4)o3)cc2C1 (configuration not stated),x,0.4
C(=N\C(/N=C/c1ccco1)c1ccco1)/c1ccco1,0.66,-0.1
Cc1cc(NC(=O)CN2C(=O)CC(c3ccco3)Sc3ccccc32)no1 (configuration not stated),0.62,-1.5
O=C(O)c1cccnc1C(=O)O,0.11,1.0
CN(C)CCNc1ncnc2sc(-c3ccccc3)cc12,x,-9.7
COC(=O)c1ccc(C2C(C#N)=C(C)NC(C)=C2C(=O)Nc2ccccc2)cc1 (configuration not stated),x,1.7
CCN1C(=O)C2CC(C)=C(C)CC2C1=O (configuration not stated),-1.6,4.3
CSc1ccc(C2N[C@@H](C(=O)O)C(C)(C)S2)cc1 (some centres not stated),x,-0.3
Cc1cn2c(CO)c(C)nc2s1,x,2.0
COc1cccc(-n2cc(C(=O)NCc3cccnc3)c3ccccc3c2=O)c1,-1.1,-1.2
CCOC(=O)C1CCN(C2CC(=O)N(c3ccc(N4C(=O)CC(N5CCC(C(=O)OCC)CC5)C4=O)cc3)C2=O)CC1 (configuration not stated),0.42,0.5
S=C(NCCc1ccccc1)N1CCC2(CC1)OCCO2,-1.3,0.1
CC(=C1C(=O)c2ccccc2C1=O)N1CCN(c2ccccn2)CC1,-1.4,3.3

# Source: PubChem BioAssay (ICCB-Longwood Screening Facility, Harvard Medical School)

# A portion of the library. The share of hits here may be higher or lower than overall.
